Rce1 inh: inhibitors of yeast Ras-converting enzyme; yeast membranes, quenched prenylated peptide cleavage fluorescence; calls only; hit rate 0.27% among 290,000;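 active means fall in fluorescence gain of 50% or more versus controls, with final raw signal at or below 3038400; inconclusive means same 50% fall but final raw signal above 3038400; inactive means fall in fluorescence gain under 50%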;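 further: plate controls were neutral control wells for no effect and wells lacking membranes for full effect; tested at 10 µM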
Target sequence (Q03530 whole entry, looked up): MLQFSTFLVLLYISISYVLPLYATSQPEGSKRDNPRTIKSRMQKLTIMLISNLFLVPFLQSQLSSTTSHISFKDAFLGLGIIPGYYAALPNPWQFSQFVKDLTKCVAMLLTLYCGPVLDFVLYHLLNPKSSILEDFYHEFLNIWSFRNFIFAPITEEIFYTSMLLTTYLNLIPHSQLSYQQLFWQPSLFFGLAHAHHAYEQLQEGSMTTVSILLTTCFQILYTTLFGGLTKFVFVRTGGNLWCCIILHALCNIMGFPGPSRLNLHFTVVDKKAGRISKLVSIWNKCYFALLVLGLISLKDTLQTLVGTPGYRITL
Yeast UUG start: alters start codon recognition fidelity in yeast | S. cerevisiae UUG-firefly luciferase reporter, luminescence/redox ratio | activity score, % at 18.7 µM | hit rate 0.13% among 350,000;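 active means replicate mean at a twofold rise or more, about +100% in these data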;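 further: firefly luciferase made from a UUG start codon reports start codon fidelity; reporter light over untreated wells divided by growth signal over untreated wells; some hits fall short of that in this replicate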
eIF4H FP inh: inhibitors of RNA binding by human eIF4H; eIF4H fluorescence polarization binding assay; hit rate 0.94% among 290,000; AID 2012; inhibition, % at 35 µM; Q15056;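 active means 50% or more with normal probe brightness, or confirmed in later tests; inconclusive means above 50% with abnormal brightness, or retests that disagree; inactive means below 50% or failed in later tests; about a fifth of its hits are not listed in these tables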;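 further: calls also rest on retests at 20 µM and on dose response follow-up; 0% = protein and probe with vehicle and 100% = probe without protein; strong numbers were not always called active; many hits fall short of the cut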
MT1-MMP act inh: blocks activation of human MT1-MMP. P50281. HT1080 RFP-PRO-GFP cells, GFP/RFP ratio fluorescence, overnight; percent of plate control window, DMSO zero. GFP/RFP ratio change, % at 20 µM. hit rate 0.061% among 360,000;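 active means GFP/RFP ratio change of at least 30% with cell ATP level not reduced by more than half and red fluorescence within 50% of control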; further: strong numbers were not always called active
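Assay system: HT1080 RFP-PRO-GFP cells | Dosing: 20 µM single dose, 1% DMSO | Incubation: Cells overnight before dosing, compound overnight, 37 °C, 5% CO2 | Evaluation: GFP/RFP fluorescence ratio | Control set: DMSO-only wells and HT1080 RFP-L50D-GFP cell wells as references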
PABP polyA inh: blocks human PABP binding to poly(A) RNA; P11940; inhibition, % at 35 µM; hit rate 1% among 290,000; fluorescence polarization; AID 2014;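 active means 50% or more with normal probe brightness, or confirmed in later tests; inconclusive means above 50% with abnormal brightness, or retests that disagree; inactive means below 50% or failed in later tests; about a fifth of its hits are not listed in these tables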;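 further: calls also rest on retests at 20 µM and on dose response follow-up; controls were probe without protein and protein plus probe with vehicle; some compounds called inactive have numbers as strong as hits; many hits fall short of the cut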
CSC inhib: cancer stem cell inhibition; cancer stem cell-like cells viability, luminescence; inhibition, % at 7.5 µM; hit rate 1.1% among 300,000; AID 2717;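 active means mean at 75% or more and at least half the replicates too; inconclusive means mean and replicates disagree; tested in HMLE shEcad cells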;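 further: 0% = median of negative and 100% = median of positive control wells; the first replicate is given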
HIV Env fusion: blocks HIV Env-driven cell-cell fusion. HeLa-JRFL Env/CEM21 cell fusion, luciferase. inhibition, % at 12.3 µM. hit rate 1.1% among 360,000. AID 651610;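 active means mean replicate inhibition score of at least 50 and every replicate individually at or above 50; inconclusive means only one of the two criteria met; inactive means mean below 50 and not all replicates reaching 50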;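 further: 0% = plate neutral controls and 100% = maraviroc near 300 nM; one replicate is shown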
eIF4H FP inh retest: also measured in eIF4H FP inh; calls as there; inhibition, %; compound at 20 µM; confirmation average;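 mean of two retest wells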
PABP polyA inh retest: recorded beside PABP polyA inh, whose call it bears; inhibition, %; compound at 20 µM; confirmation repeats;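 mean of two retest wells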
MT1-MMP act inh RFP: second read-out of MT1-MMP act inh, no call of its own (marks repeat the call); RFP signal change, %; measured here: RFP expression control read;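 0 = vehicle wells; hits needed this value within 50% of zero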
The depositor's hits bear a star; i = inactive; ? = inconclusive; / = not tested or not shown. The list is partial; rates above refer to the full screens.

SMILES | Rce1 inh | Yeast UUG start | eIF4H FP inh | MT1-MMP act inh | MT1-MMP act inh RFP | PABP polyA inh | CSC inhib | HIV Env fusion | others
CCCCCCCCn1c2c(c(=N)c3c1CCC3)CCCC2 | / | / | -14.4 | -21.1 | -34.1 | -6.5 | -8.5 | 64.5*
C=CCc1cc(/C=C/c2nc(O)c([N+](=O)[O-])c(=O)[nH]2)cc(OC)c1O | i | / | 66.6 | 0.8 | 0.8 | -6.0 | -3.5 | -3.2 | eIF4H FP inh retest=17.1;PABP polyA inh retest=9.4
CC1=C(C(=O)Nc2ccc(C)cc2)C(c2cccs2)NC(=S)N1 (stereo not given) | i | / | -4.9 | 1.1 | 2.5 | -0.6 | 8.5 | 15.9
C(=N\Nc1nccc(-c2cccnc2)n1)/c1ccccc1 | i | -9.4 | -10.5 | -5.1 | -3.6 | -7.1 | -2.8 | -46.5
COc1ccc(CCN(Cc2ccccn2)C(=S)Nc2ccc(C)cc2)cc1OC | i | -25.7 | 5.7 | -2.3 | -2.3 | -2.4 | 1.9 | 6.0
CCOC(=O)C1(CC2CC2)CCN(Cc2cn[nH]c2-c2ccccc2)CC1 | / | / | -5.8 | -0.9 | 5.3 | -4.3 | 1.0 | -9.9
Cc1nc(N2CCN(Cc3nc4ccccc4[nH]3)CC2)c2oc3ccccc3c2n1 | i | -10.3 | -1.6 | -44.9 | -39.8 | -8.8 | -10.7 | /
CCc1nc(SCC(=O)Nc2ccc(N(C)C)cc2)n[nH]1 | i | -11.0 | / | 1.4 | 11.5 | / | -19.2 | -8.4
Cc1ccc(S(=O)(=O)/N=C/c2c(O)ccc3ccccc23)cc1 | i | -11.8 | -3.0 | 0.7 | 0.5 | -1.9 | -4.3 | 2.0
COc1ccccc1CCNC(=O)c1nc(-c2cccs2)no1 | i | -21.0 | -6.3 | 0.7 | 0.3 | -7.3 | 13.9 | -23.4
COc1ccc([N+](=O)[O-])cc1N(CC(=O)Nc1ccccc1C(=O)NC(C)C)S(C)(=O)=O | i | -13.7 | 8.2 | 5.2 | 1.0 | -1.2 | -7.9 | 8.3
CC1(C)CC(N2CCN(CCO)CC2)=CC(=S)N1 | i | -23.0 | 30.1 | -6.7 | -0.9 | 10.6 | -5.7 | 2.4
CC1=C[C@H]2Cc3cc(C)cc(C)c3S(=O)(=O)[C@@H]2C=C1 | i | / | 1.6 | -7.9 | -4.8 | 2.8 | -16.2 | 28.6
CCCNC(=O)c1ccccc1NC(=O)Nc1ccccc1C | i | -6.3 | -4.8 | -0.4 | 0.5 | 1.7 | -4.0 | /
CCc1ccc[n+](-c2[nH]c(=O)sc2/C=N/NC([S-])=Nc2ccccc2)c1 | i | / | ? | -81.8 | 9.4 | 0.2 | -9.8 | 5.2
CCOc1ccc(OCCn2nnc3ccccc3c2=O)cc1 | i | / | -9.9 | -0.7 | 1.1 | 7.4 | 10.2 | -86.8
Cc1ccccc1NC(=S)NCCSc1ccc(Cl)cc1 | i | -36.8 | -4.2 | 1.8 | -4.1 | 21.1 | 19.8 | 7.7
Cc1nc2ccc(S(=O)(=O)Nc3ccc(-c4nc5cccnc5s4)cc3)cc2s1 | i | -16.5 | -5.4 | 4.2 | 2.7 | -0.4 | 14.6 | /
N#C/C(=C\c1ccc(-c2cccc([N+](=O)[O-])c2)o1)C(=O)Nc1nc(-c2cccs2)cs1 | i | -12.8 | 8.9 | 1.5 | -1.9 | -4.7 | 5.3 | -0.1
COCc1cc(C)nc2sc(C(=O)Nc3ccccc3OC)c(N)c12 | / | -0.3 | -19.1 | 1.3 | -2.0 | -3.4 | 7.5 | 0.8
COc1ccc(Cl)cc1-c1nc(SCC(=O)NCC2CCCO2)n[nH]1 (stereo not given) | / | -5.2 | / | 2.5 | -0.7 | / | 1.0 | /
COc1ccc(C(=O)NCCS(=O)(=O)NC(C)c2ccccc2)cc1 (stereo not given) | i | 2.5 | / | -2.2 | 0.6 | / | / | /
COCCSc1ccccc1C(=O)Nc1ccc(S(=O)(=O)N2CCOCC2)cc1 | i | 12.8 | 1.9 | 0.1 | 3.1 | 10.6 | -16.2 | 2.2
CC(NC(=O)COC(=O)c1cc(=O)c2ccccc2o1)c1ccccc1 (stereo not given) | / | -21.1 | / | -2.8 | 4.0 | / | -7.4 | 6.4
CC(=O)Nc1ccc(NC(=O)C(Cc2ccccc2)NC(=O)C2CCC(C)CC2)cc1 (stereo not given) | i | -13.7 | -4.0 | 14.0 | 1.9 | 1.8 | 7.4 | -81.6
C=CCN(c1ccccc1)S(=O)(=O)c1cccc(C(=O)NNC(=O)c2ccccc2O)c1 | i | -17.5 | / | 8.7 | -17.9 | / | 12.7 | -1.3
O=C(Cn1cnc2cc([N+](=O)[O-])ccc2c1=O)Nc1ccccc1-c1ccccc1 | i | -14.1 | -0.9 | -3.2 | -6.3 | 8.1 | 6.2 | -1.5
CCOC(=O)c1c(NC(=O)CSc2ncccn2)sc(C(=O)NC)c1C | i | / | / | 1.6 | -18.3 | / | / | 10.2
N#Cc1ccc(NC(=S)NCCN2CCOCC2)cc1 | i | -13.6 | -5.8 | 3.3 | 0.3 | 1.3 | -14.7 | 1.1
Cc1occc1C(=O)NNC(=S)Nc1cccc([N+](=O)[O-])c1 | i | -21.6 | -4.9 | 7.4 | 1.8 | -1.5 | -1.8 | /
Cc1ccc(C)c(S(=O)(=O)NC2CCS(=O)(=O)C2)c1 (stereo not given) | i | 18.6 | / | -1.2 | -2.2 | / | -6.6 | -4.0
COC(=O)CCC(=O)OC1(C)C(=O)C2=COC(c3ccc(OC)cc3)=CC2=C(Br)C1=O (stereo not given) | i | / | ? | / | / | ? | -22.2 | /
O=C(CCC(=O)c1cccs1)NCC(c1ccc(F)cc1)N1CCOCC1 (stereo not given) | / | -15.0 | / | -3.5 | 3.1 | / | -12.8 | -73.8
Cc1ccc(C2=N/C(=C\c3cccnc3)C(=O)O2)cc1 | i | / | -0.2 | -2.1 | 1.5 | -9.6 | -20.7 | -6.6
COc1ccc(/C=N/NC(=O)c2c(C)nc3ccc(Br)cn23)cc1OC | i | / | -4.5 | -0.3 | -8.4 | -5.3 | 32.6 | 3.0
N/C(=N/O)c1nc(N2CCCCC2)nc(N2CCCCC2)n1 | i | -25.7 | -1.4 | 3.3 | 1.0 | 20.2 | -14.5 | /
O=C(N1CCOCC1)N1CCN(Cc2ccccc2)CC1 | / | -12.6 | -3.4 | -0.6 | 4.7 | 1.0 | -13.9 | 13.0
COC(=O)N/N=C/c1cc(Cl)c(OCc2ccc(F)cc2)c(OC)c1 | i | -9.2 | -1.7 | 7.9 | 9.3 | -3.1 | 2.3 | -16.3
O=C1CCCCC1CCc1ccncc1 (stereo not given) | / | -9.1 | / | -0.5 | -0.4 | / | / | -20.9
O=C(c1c[nH]c2ccccc2c1=O)N1CCCCCC1 | i | / | 0.1 | -0.4 | -0.6 | 2.7 | -1.1 | -19.9
Oc1ccccc1C(=S)N1CCN(C(=S)c2ccccc2O)CC1 | i | -4.5 | 1.0 | 2.4 | 3.6 | -1.7 | 9.8 | -3.8
CCn1c(SCC(=O)c2c[nH]c3ccccc23)nc2cc(S(=O)(=O)N3CCOCC3)ccc21 | i | / | 22.6 | -1.9 | 0.5 | -9.7 | -4.6 | -120.4
Cc1ccc(C2C(C(=O)c3cccs3)=C(O)C(=O)N2c2cccc(C)n2)cc1 (stereo not given) | i | / | 5.8 | -2.6 | 2.6 | -4.8 | 0.8 | 4.2
Cc1ccc(S(=O)(=O)N2CCSC2c2ccco2)cc1 (stereo not given) | i | -5.7 | -6.2 | 1.4 | -3.7 | 11.4 | -6.6 | /
COC(=O)c1ccc(C(=O)OC)c(NC(=O)N2c3ccccc3Sc3ccccc32)c1 | i | -18.8 | 28.5 | -9.9 | -6.9 | 19.0 | -1.7 | /
CN(C)S(=O)(=O)c1ccc(C(=O)Nc2ccccc2SCCC#N)cc1 | i | / | -1.7 | 1.2 | 2.1 | 3.2 | -37.2 | -10.7
COc1ccccc1C1C=C(c2ccc(C)cc2)Nc2nnnn21 (stereo not given) | i | -3.4 | -3.4 | 6.6 | -0.4 | -1.0 | 29.7 | -19.4
c1ccc(-n2ncc3c(NCCN4CCOCC4)ncnc32)cc1 | i | -10.7 | -5.8 | -0.8 | 4.2 | 2.3 | -11.9 | -24.3
COc1ccc(NC(=O)CCc2nnc3ccc(N4CCC(C)CC4)nn23)cc1OC | i | -14.2 | -9.7 | 1.5 | 3.7 | 1.0 | -8.4 | 3.7
COc1ccccc1CNC(=O)CN(Cc1ccc(Cl)cc1)S(C)(=O)=O | i | / | -5.2 | -0.5 | 2.2 | -8.8 | 12.0 | 21.2
Cc1nn(C)c(C)c1NC(=O)CCCSc1nc(-c2ccco2)cc(C(F)(F)F)n1 | i | / | 2.9 | -3.7 | -11.9 | 5.5 | 8.5 | /
Cc1ccc(NC(=O)C(Cc2ccccc2)N2C(=O)C3C4CCC(C4)C3C2=O)cc1Cl (stereo not given) | i | -1.3 | -8.4 | -7.2 | -8.4 | -0.9 | -6.3 | -3.4
CCOC(=O)c1cn(Cc2ccc(C)cc2)c2cc(F)ccc2c1=O | i | -2.1 | -15.9 | -6.4 | -3.0 | 6.8 | -5.0 | -5.2
COc1ccc(NC(=O)CSc2nnc(NC(=O)C3CCC3)s2)c(OC)c1 | i | -24.5 | -1.9 | -0.5 | 0.5 | 3.4 | -9.8 | 3.5
COc1cc(OC)cc(C(=O)NCc2ccc(-n3cccc3)cc2)c1 | i | / | -6.7 | -0.4 | -0.3 | -1.5 | 35.4 | -10.5
CC(=O)Nc1ccc(S(=O)(=O)N2CCN(c3cc4c(cc3[N+](=O)[O-])n(C)c(=O)n4C)CC2)cc1 | i | -11.7 | 1.6 | 5.2 | -9.3 | -0.8 | / | 32.5
O/N=C1\CC/C(=N\O)c2nn(-c3ccc(Cl)cc3Cl)nc21 | i | -5.5 | 1.6 | -6.7 | -1.6 | -2.7 | 4.7 | /
Cc1cccc(OCCCn2c(=O)oc3ccc(C)cc32)c1 | / | / | -1.4 | 0.7 | -2.4 | 0.4 | -9.7 | -5.4
CCOC(=O)CN1NC2(CCC(C(C)(C)C)CC2)NC1=S (stereo not given) | i | -15.2 | -16.2 | -8.1 | -4.7 | 3.7 | 7.8 | -15.9
CCN1CCN(c2ncnc3sc(C(=O)Nc4ccccc4F)c(C)c23)CC1 | i | -27.8 | -11.4 | -4.2 | -3.1 | -5.0 | -0.7 | /
Cc1cccc(C)c1NC(=O)CN(C)C(=O)Cc1cccc(C(F)(F)F)c1 | i | -2.2 | -7.5 | 2.4 | -0.1 | -4.5 | -3.3 | 13.2

Bioassay records as filed in PubChem BioAssay.
